# Source: PubChem BioAssay (National Center for Advancing Translational Sciences (NCATS))
# gsp agonist: agonists of gsp mutant (McCune-Albright syndrome) | gsp mutant cells, cAMP HTRF, 30 min; control for the full effect not named in the record | Potency, µM (doses to about 76.9 µM), inactives show top-dose activation (cAMP increase), hits mostly activators | 340,000 tested, 0.13% active | AID 624287; active = well fitted activation curve with a large enough effect; inconclusive = small, poorly fitted or top-dose-only effect, or another doubt; inactive = no such curve, though single readings can be large or run the other way; cell line not stated here;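 note: phosphodiesterase inhibitor Ro 20-1724 added with compounds to block cAMP breakdown; potency is the fitted concentration of half-maximal effect; nearly all actives have a fitted effect of over 60% in size; about a fifth of the inactives were tested at one dose only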
#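 Cells stably selected in G418 were plated at 2000/well, grown 16-24 hr, then given compounds in DMSO with the PDE inhibitor […] (300 uM solution added) for 30 min at 37C; cAMP was read by HTRF.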
# TRPML1 blocker: blocks the human TRPML1 channel | Q9GZU1 | TRPML1-inducible cells, Ca2+ dye fluorescence, FDSS; active compounds read low; inhibition of EC80 agonist-evoked calcium signal | activity change, negative = inhibition, % (test concentration not listed) | 390,000 tested, 0.02% active; in the data active means activity change below about -50%; inconclusive means about -30% to -50%; inactive means above about -30%;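 note: stimulus is agonist 54-4 at its EC80 concentration; % is set by controls: 0 for no effect and ±100 for the full control effect; compound concentration not given in the record; the text of the record puts the active cut at -80%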
# Target sequence (Q9GZU1 whole entry, looked up): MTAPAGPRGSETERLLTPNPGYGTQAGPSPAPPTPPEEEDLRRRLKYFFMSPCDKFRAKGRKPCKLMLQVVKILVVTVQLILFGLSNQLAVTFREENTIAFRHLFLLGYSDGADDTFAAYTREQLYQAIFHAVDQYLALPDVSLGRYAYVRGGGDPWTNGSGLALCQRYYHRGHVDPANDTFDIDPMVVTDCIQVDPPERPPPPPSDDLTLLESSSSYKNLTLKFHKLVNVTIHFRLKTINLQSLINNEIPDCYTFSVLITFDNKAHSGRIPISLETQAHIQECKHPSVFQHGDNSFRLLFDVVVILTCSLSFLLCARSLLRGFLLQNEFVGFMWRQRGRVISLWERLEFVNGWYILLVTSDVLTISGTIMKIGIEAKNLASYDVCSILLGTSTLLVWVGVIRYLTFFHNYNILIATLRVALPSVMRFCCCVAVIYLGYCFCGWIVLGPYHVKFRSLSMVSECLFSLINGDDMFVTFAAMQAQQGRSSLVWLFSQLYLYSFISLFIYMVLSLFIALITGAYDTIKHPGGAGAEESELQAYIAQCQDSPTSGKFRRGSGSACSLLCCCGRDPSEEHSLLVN
#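 TRPML1-DL cells, Tet-induced overnight (~16 h, 37 °C) at 1,500 cells/well, were loaded with Ca8 no-wash dye plus quencher for 45-90 min at room temperature. Compounds were pinned during FDSS kinetic reading; agonist 54-4 at EC80 (4 uM final) then added.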
# Menin MLL FP FL: inhibitors of human menin-MLL interaction, wild-type MLL peptide | 290,000 tested, under 10 active | FP activity change, % at 61.4 µM | AID 1766 | Fluorescence polarization, fluorescein-MLL peptide displacement from menin; inconclusive = falling polarisation curve, or a change in total fluorescence; inactive = total fluorescence flat and polarisation flat or rising; no compound was filed as active; the % refers to the polarisation; negative = inhibition;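 note: % of control where 0% means no effect; inhibitors lower the polarisation; unlabelled MLL peptide was the positive control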
# TRPML1 ag: agonists of human TRPML1 channel; TRPML1-expressing cells, Ca2+ dye fluorescence, FDSS; host cell line not named in the record; reference of the full effect not given here; activation, % (test concentration not listed); 410,000 tested, 0.12% active; in the data active = activation above about 50%; inconclusive = about 30% to 50%; inactive = below about 30%; note: 0% is about no effect; the text of the record puts the active cut at 80%
#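 Tet-induced TRPML1-DL cells, 1,500 per well, cultured overnight, were loaded with a no-wash Ca2+ dye for 45–90 min. Calcium fluorescence was recorded on the FDSS for 110 s after compound addition, before the EC80 agonist (4 uM 54-4) was added.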
# ClpP mod: qHTS Assay for Activators of ClpP. ATP-dependent Clp protease proteolytic subunit (Bacillus subtilis (strain 168)), P80244. purified B. subtilis ClpP, FRET peptide cleavage, 20 min. Potency, µM (series often up to 57.5 µM), inactives show at the top dose activity change, negative = active. 340,000 tested, 1.9% active; active = well fitted falling curve with a large enough effect; inconclusive = small, poorly fitted or top-dose-only effect; inactive = no such curve, though single readings can be large or run the other way; note: potency is the fitted concentration of half-maximal effect; the source files actives as falling curves though it sought activators and does not explain the sign; nearly all actives have a fitted effect of over 65% in size; many hits overshoot -100%
# Target sequence (P80244 whole entry, looked up): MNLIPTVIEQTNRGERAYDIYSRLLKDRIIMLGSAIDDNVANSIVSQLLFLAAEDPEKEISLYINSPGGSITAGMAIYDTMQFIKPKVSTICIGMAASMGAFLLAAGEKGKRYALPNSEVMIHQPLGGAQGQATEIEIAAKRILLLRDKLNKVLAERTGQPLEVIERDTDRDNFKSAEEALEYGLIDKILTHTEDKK
#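 FRET quenching reversal measured ClpP activation: 10 microg/mL B. subtilis ClpP at pH 8 with the FRET-FV decapeptide, read at 430 nm after 320 nm excitation. The 20-min minus 0-min signal was scaled between DMSO/no-enzyme wells and ADEP (5.8 microM final).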
# gsp antagonist: gsp mutant antagonism; gsp-mutant cells, cAMP HTRF, 30 min; control for the full effect not named in the record; Potency, µM (series often up to 76.9 µM), without a hit: top-dose activity change, negative = inhibition, hits mostly inhibitors; 340,000 tested, 0.4% active; AID 624288; active = falling curve of any shape with a large fitted effect; inconclusive = falling curve, mostly with a smaller effect; inactive = flat or rising curve; cell line not stated here;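 note: intracellular cAMP measured with PDE inhibitor Ro 20-1724 present during compound exposure; potency is the fitted concentration of half-maximal effect; % is set by controls: 0 for no effect and ±100 for the full control effect; nearly all actives have a fitted effect of over 65% in size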
#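 Cells in G418 medium, seeded 16-24 h, 37C; buffer exchange to DPBS + 1 mM CaCl2, 0.5 mM MgCl2, 0.05% BSA; cpds in DMSO + […] (300 uM stock), 30 min 37C; HTRF cAMP detection.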
# Active calls of the source: *; ? = inconclusive; . = no result given; [ ] = another dose, or the depositor's remark.
SMILES,gsp agonist,TRPML1 blocker,Menin MLL FP FL,TRPML1 ag,ClpP mod,gsp antagonist
Oc1oc(-c2ccccc2)nc1/C=N/c1nccs1,11%,-3,1.9,0.6,-1.6%,-14%
Cc1ccc(Cl)cc1NC(=O)CN1C(=O)CSc2ccc(S(=O)(=O)N3CCCC3)cc21,.,-12,.,1.4,-0.1%,.
Cn1nc(Oc2nc(N3CCOCC3)nc(N3CCOCC3)n2)ccc1=O,13%,-12,3.4,0.2,-1.3%,-2%
Nc1c(N(CCC2=CCCCC2)C(=O)Cc2ccccc2F)c(=O)[nH]c(=O)n1Cc1ccccc1,-6%,4,.,5.8,-1.8%,?
CC(NC(=O)Cc1ccc(F)cc1)c1ccc(F)cc1 (stereo not drawn),-64%[inhibitor],-11,8.4,0.5,-0.6%,1%
COc1ccc(/C=N/NC(=O)CNc2n[nH]c(=O)[nH]c2=O)cc1OC,3%[15.4 µM],-5,-0.6,-0.2,-4.1%,1%
Nc1ccccc1SCc1c(Cl)cccc1Cl,13%[15.4 µM],-1,7.5,0.6,.,2%
O=C(Nc1cccnc1Cl)c1ccc2c(Cl)c3c(nc2c1)CCC3,9%[15.4 µM],11,2.0,2.9,.,-9%
CCn1c(=O)c2sccc2n(Cc2cc(C(=O)OC)ccc2OC)c1=O,8%,17,-1.6,1.2,1.6%,-3%
Cn1c(=O)[nH]c2cc(-c3noc(-c4ccc(Br)cc4)n3)ccc21,.,-1,.,1.3,-10%,.
CCCOC(=O)c1ccc(NC(=O)COC(=O)C2CCN(c3ccc(C(F)(F)F)cn3)CC2)cc1,3%,-2,.,2.9,-19%,1%
COc1ccc(S(=O)(=O)c2nnn(-c3cccc(OC)c3)c2N)cc1,-27%,-1,3.7,3.6,-1.8%,-4%
COc1ccccc1NCC(=O)Nc1cc(S(=O)(=O)N2CCOCC2)ccc1N1CCOCC1,-2%[15.4 µM],-12,2.2,-0.8,0.0%,-7%
Cc1ccc(NC(=O)C(=O)NCCCN2CCOCC2)cc1C,.,-9,.,0.3,0.6%,.
Fc1ccc(OCCCCCN2CCCC2)cc1,-35%[inhibitor],3,1.4,0.1,0.9%,?
Cc1cc(C)c(C#N)c(SCC(=O)Nc2cc(C)on2)n1,?,2,.,0.8,?,13%
CC(=O)NC12CC3CC(C1)CC(C(=O)N1CCN(c4ncccn4)CC1)(C3)C2,-29%,-12,.,-0.1,-7.3%,-3%
Cc1cccc(N2CCN(c3nc4ccccc4n4cnnc34)CC2)c1C,2%,-8,2.1,-0.6,-15%,1%
CCOC(=O)COc1ccccc1C1C(C(=O)OC)=C(C)NC2=C1C(=O)c1ccccc12 (stereo not drawn),.,12,.,0.8,-2.0%,.
COc1cc(NC(=O)CCCc2nnc3n(CC(C)C)c(=O)c4sccc4n23)cc(OC)c1,.,-10,.,0.2,-6.1%,.
COc1ccc(CN2C(=O)C(CC(=O)NCc3ccco3)CC(C(=O)N(C(C)C)C(C)C)=C2C)cc1 (stereo not drawn),-40%[inhibitor],4,.,-0.3,0.6%,.
NC(=O)Cn1ccc(O)c(Cc2ccc(Cl)cc2Cl)c1=O,-41%[inhibitor],-15,-2.0,0.7,-1.1%,0%
COc1cc(NC(=S)N2CCCC(CO)C2)c(OC)cc1Cl (stereo not drawn),-42%,-9,-1.0,-0.4,-1.2%,7%
CCOC(=O)c1cc2sccc2n1CC(=O)N1c2ccccc2CC1C (stereo not drawn),23%,32,4.4,4.1,-3.2%,6%
COc1ccc(Cl)cc1C(=O)OCC(=O)NCc1cccs1,11%,-4,.,0.9,-6.9%,-3%
# The list continues:
SMILES,gsp agonist,TRPML1 blocker,Menin MLL FP FL,TRPML1 ag,ClpP mod,gsp antagonist
Cc1nn(-c2ccccc2)c(C)c1C(=O)OCc1ccc(C#N)cc1,4%,70,17,2.1,-2.1%,-10%
Cc1ccc(Cl)cc1NC(=O)CCC(=O)N1CC(C)Sc2ccccc21 (stereo not drawn),.,34,.,5.5,0.0%,.
COc1ccc(S(=O)(=O)Nc2ccccc2)cc1,-2%[15.4 µM],-8,.,-0.6,0.5%,-9%
COc1cc(CN(C)C)cc(C=O)c1O,-1%[15.4 µM],8,8.9,-0.1,.,9%
Cc1cc(NC(=O)CN2C(=O)NC3(CCCCC3)C2=O)ccc1N1CCCC1,1%[15.4 µM],5,.,-0.5,0.2%,6%
COc1ccccc1N1CCN(C(=O)c2ccc3noc(-c4ccccc4)c3c2)CC1,-58%[inhibitor],-3,.,-0.6,-2.5%,.
COc1ccccc1N1CCN(C(=O)COc2ccc(Cl)cc2Br)CC1,10%,0,3.8,1.0,-0.8%,-6%
Cc1cccc(NS(=O)(=O)c2cccc([N+](=O)[O-])c2)n1,?,52,-0.6,3.0,0.4%,3%
CCOc1ccc(CCNC(=O)COC(=O)Cc2ccc(OC)c(OC)c2)cc1OCC,25%[15.4 µM],-1,.,0.5,.,3%
Cc1cccc(CCNC(=O)C2CCCN(c3cnccn3)C2)c1 (stereo not drawn),7%,-1,1.9,-0.8,-23%,4%
Cc1ccc(-c2cc3nccc(-c4cc([N+](=O)[O-])ccc4O)n3n2)cc1,.,-9,.,2.3,-1.3%,.
CCOC(=O)CC(NC(=O)CCc1c(C)nc2cc(-c3ccccc3)nn2c1C)c1ccc(C)cc1 (stereo not drawn),.,-5,.,0.0,4.6%,.
CSc1nc(-c2ccccc2)nn1C(=O)c1ccc(Cl)cc1,-32%,5,2.8,-0.9,4.4%,-7%
COC1=C(N2CCOCC2)C(=O)c2ccccc2C1=O,0%,16,-11,0.5,.,-3%
COC(=O)c1cc(COC(=O)c2ccc3ccccc3n2)oc1C,?,-6,2.3,0.2,-5.4%,12%
Cc1nn(C(=O)c2ccco2)c(C)c1Sc1ccc([N+](=O)[O-])cc1,-31%[inhibitor],9,3.1,-0.4,-1.0%,10%
COc1ccc(NS(=O)(=O)c2ccc3[nH]c(=O)[nH]c3c2)cc1OC,14%[15.4 µM],-3,3.6,-0.6,.,4%
CCC(CC)C(=O)Nc1nc(-c2ccc3c(c2)CCN3C(=O)C2CC2)c(C)s1,-18%,17,3.5,-0.3,-1.0%,-13%
COC(=O)c1ccc2c(c1)NC(=O)C(N1CCCC1)S2 (stereo not drawn),-46%[inhibitor],1,3.6,0.4,-0.9%,-1%
CC(C)[C@H](NC(=O)c1ccc(Cl)c([N+](=O)[O-])c1)C(=O)O,-20%,5,-4.5,0.7,-0.7%,18%
S=c1[nH]nc(Cc2ccc(Br)cc2)n1/N=C/c1ccc(Cl)cc1,-8%[15.4 µM],-8,-6.5,-1.8,-0.4%,-5%
Cc1ccc(C(=O)Nc2cc(C(C)C)c(O)c(C(C)C)c2)cc1,?,-4,7.1,4.1,-2.1%,-7%
COc1ccc(C(CNC(=O)c2ccco2)N2CCCCC2)cc1 (stereo not drawn),14%[15.4 µM],-8,-0.9,-0.7,.,6%
COc1ccc(-n2c(=O)c3c4c(sc3n(CC(=O)NCC3CCCO3)c2=O)CCCC4)c(OC)c1 (stereo not drawn),-8%[15.4 µM],-9,0.1,0.9,.,-3%
CN1CCC(NC(=O)c2ccncc2)CC1,?,-6,-3.7,-0.2,.,-2%
# (further entries)
SMILES,gsp agonist,TRPML1 blocker,Menin MLL FP FL,TRPML1 ag,ClpP mod,gsp antagonist
COc1ccc(Cn2c(=O)c3oc4ccccc4c3n(Cc3ccccc3)c2=O)cc1,.,-30,.,1.8,-0.6%,.
Cc1ccc2occ(C(c3nnnn3C3CCCC3)N3CCN(C(=O)c4ccco4)CC3)c(=O)c2c1 (stereo not drawn),23%,0,1.8,5.8,-1.3%,-10%
O=C(N/N=C/c1ccc(N2CCOCC2)cc1)c1ccccc1OCCOc1ccccc1,-2%[15.4 µM],10,?,3.2,.,-21%
COC(=O)c1cnc(SCc2ccc(C)cc2)n1C,11%[15.4 µM],31,-3.2,1.1,.,-3%
CCOC(=O)c1cnc2ccc(OCC)cc2c1N1CCN(c2ccccc2F)CC1,.,-7,.,1.0,-4.6%,.
COCCn1c(C)cc(C(=O)Cn2nc(C(=O)O)c3ccccc3c2=O)c1C,-34%[inhibitor],-2,1.1,1.4,-0.8%,2%
Cc1ccc(C2CC(=O)NC(SCC(=O)Nc3nccs3)=C2C#N)cc1 (stereo not drawn),-16%,28,-1.3,0.0,8.4%,-11%
